Ecoli rRNA inh: reduced GFP signal of wild-type E. coli, primary screen, bacterial rRNA inhibitor project, GFP/RFP fluorescence, OD600, single point. hit rate 1.6% among 350,000. GFP signal change (wild-type ribosome), % (no concentration beside the values). AID 720706, 2013. E. coli WT GFP vs humanized-ribosome RFP mutants, 24 h; active compounds read low; DMSO median 0, no signal -100;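 active = significant combined selectivity score with lowered wild-type GFP, culture density cut under 30%, mutant RFP and density less affected; inactive = any of these conditions unmet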; note: one replicate is shown; some compounds called inactive have numbers as strong as hits
AF4-AF9 inh: inhibitors of AF4 peptide binding to AF9, primary screen, biochemical, AlphaScreen, biotin-AF4 peptide, FLAG-AF9, single point; Protein AF-9 (Homo sapiens), P42568; inhibition, % at 10 µM; hit rate 0.47% among 350,000; AID 651704, 2012;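 active = every replicate reaching a set inhibition limit, whatever the replicate mean, cut at about 25% in these data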;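 note: 0% = plate neutral control median and 100% = total signal loss; the record names both 10 and 1 µM as test concentration; the first replicate is given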
Target sequence (P42568 whole entry, looked up): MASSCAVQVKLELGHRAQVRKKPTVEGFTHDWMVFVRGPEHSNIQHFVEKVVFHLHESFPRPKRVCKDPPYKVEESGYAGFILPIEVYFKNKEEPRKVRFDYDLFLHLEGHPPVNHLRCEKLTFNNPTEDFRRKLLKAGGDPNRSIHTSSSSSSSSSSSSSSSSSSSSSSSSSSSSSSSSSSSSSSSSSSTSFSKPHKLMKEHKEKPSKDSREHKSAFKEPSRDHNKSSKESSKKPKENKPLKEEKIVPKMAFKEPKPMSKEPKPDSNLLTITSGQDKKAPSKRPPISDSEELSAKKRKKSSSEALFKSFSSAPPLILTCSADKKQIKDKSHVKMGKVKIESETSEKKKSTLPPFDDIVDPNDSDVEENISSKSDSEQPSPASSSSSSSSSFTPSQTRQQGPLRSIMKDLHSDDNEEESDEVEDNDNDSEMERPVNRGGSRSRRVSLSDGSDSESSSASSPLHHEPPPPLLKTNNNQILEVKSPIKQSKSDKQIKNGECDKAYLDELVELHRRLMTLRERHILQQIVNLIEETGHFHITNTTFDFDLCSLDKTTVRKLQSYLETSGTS
Ecoli rRNA inh OD600: second read-out of Ecoli rRNA inh, no call of its own (marks repeat the call); OD600 change, %; measured here: OD600 growth;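 optical density of the mix in the first replicate; 0 = DMSO median and -100 = no signal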
Ecoli rRNA inh RFP: recorded beside Ecoli rRNA inh, whose call it bears; RFP signal change, %; measured here: RFP humanized mutant strains;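 first replicate; 0 = DMSO median and -100 = no signal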
* hit, by the source's call; & = joins results of further samples.

SMILES	Ecoli rRNA inh	Ecoli rRNA inh OD600	Ecoli rRNA inh RFP	AF4-AF9 inh
C[C@H](CO)N1C[C@H](C)[C@@H](CN(C)Cc2ccc(C(=O)Nc3ccccc3N)cc2)Oc2ccc(N(C)C)cc2CC1=O	-1.0	-6.6	-1.0	15.6
C[C@@H]1CN([C@H](C)CO)C(=O)c2cc(NC(=O)c3ccncc3)ccc2O[C@@H]1CN(C)Cc1ccc(C(F)(F)F)cc1	-5.2	-10.8	1.8	1.7
CCCC#Cc1ccc2c(c1)[C@@H]1[C@@H](CCN1S(=O)(=O)c1ccc(F)cc1)[C@H](CO)N2	-4.8	-6.3	2.3	4.2
CO[C@H]1CN(C)C(=O)c2ccc(NC(=O)c3cc(C)on3)cc2OC[C@H](C)N(C)C[C@@H]1C	-0.6	1.8	2.5	-5.2
O=C(c1ccccc1F)N1CC(=O)N2[C@H](C1)[C@@H](c1ccc(C#Cc3ccc(F)cc3)cc1)[C@@H]2CO	-21.2	-43.7	28.1	-2.0
N#C[C@@H]1[C@@H](c2ccccc2C2=CCCCC2)[C@H](CO)N1C(=O)Cc1ccncc1	-2.3	-30.6	-3.6	-1.3
Cc1noc(C)c1S(=O)(=O)Nc1ccc2c(c1)C(=O)N([C@H](C)CO)C[C@@H](C)[C@@H](CN(C)C(=O)c1ccccc1)OCCCC[C@@H](C)O2	0.1	-2.5	-0.3	-6.3
CC(=O)N1[C@H](CO)[C@H](c2ccc(C3=CCCCC3)cc2)[C@@H]1CNC(=O)CC1CC1	-6.6	-14.5	1.3	-1.9
C[C@@H]1CN([C@H](C)CO)C(=O)c2cccc(NC(=O)Nc3ccccc3)c2O[C@H]1CN(C)Cc1ccccc1	-6.9	-19.1	-0.9	-0.5
CN(C)C(=O)c1cccc(-c2ccc([C@H]3[C@H]4CN(C(=O)C5CCCCC5)CC(=O)N4[C@H]3CO)cc2)c1	3.1	14.1	0.9	9.2
CC(=O)N[C@H]1CC[C@@H](CCNC(=O)C2CCCCC2)O[C@@H]1CO	1.6	6.5	0.0	-3.0
CCS(=O)(=O)Nc1ccc2c(c1)C(=O)N(C)C[C@@H](OC)[C@H](C)CN(C(=O)C1CCC1)[C@@H](C)CO2	0.4	-1.9	-1.6	2.9
CCC(=O)N1CC(=O)N2[C@H](C1)[C@H](c1ccc(C#CC3CCCC3)cc1)[C@@H]2CO	0.3	-8.4	-1.2	0.8
N#Cc1cccc(-c2ccc(C3[C@H]4CNC[C@@H]3N4Cc3ccc(F)cc3)cc2)c1 (stereo partly specified)	0.2&-59.2	-4.3&-71.4	2.2&-11.5	-3.1&-3.9
CO[C@H]1CN(C)C(=O)c2ccc(NC(=O)C3CC3)cc2OC[C@H](C)N(C(C)=O)C[C@H]1C	3.5	6.1	-0.9	-10.7
CC(C)NC(=O)Nc1ccc2c(c1)CC(=O)N([C@H](C)CO)C[C@@H](C)[C@H](CN(C)C(=O)NC1CCCCC1)O2	2.4	10.5	-0.2	-2.2
CCCN1C[C@H](C)[C@@H](OC)CN(C)C(=O)c2cc(NC(=O)c3ccno3)ccc2OC[C@@H]1C	3.9	-1.3	0.5	-0.5
CC(C)NC(=O)Nc1ccc2c(c1)C(=O)N([C@@H](C)CO)C[C@H](C)[C@H](CN(C)Cc1ccc(C(=O)Nc3ccccc3N)cc1)O2	0.2	-5.1	-3.8	-2.5
CNC(=O)C[C@H]1CC[C@@H]2[C@@H](COc3ccc(NC(=O)Nc4ccccc4OC)cc3C(=O)N2C)O1	-2.2	0.1	-1.4	-0.9
O=C(C1CCOCC1)N1CC(=O)N2[C@@H](CO)[C@H](c3ccc(-c4ccccc4F)cc3)[C@@H]2C1	-0.6	-6.4	4.2	-0.8

Some of the entries above in a different format.
structure,Ecoli rRNA inh,Ecoli rRNA inh OD600,Ecoli rRNA inh RFP,AF4-AF9 inh
CNC(=O)C[C@H]1CC[C@@H]2[C@@H](COc3ccc(NC(=O)Nc4ccccc4OC)cc3C(=O)N2C)O1,-2.2,0.1,-1.4,-0.9
CCS(=O)(=O)Nc1ccc2c(c1)C(=O)N(C)C[C@@H](OC)[C@H](C)CN(C(=O)C1CCC1)[C@@H](C)CO2,0.4,-1.9,-1.6,2.9
O=C(c1ccccc1F)N1CC(=O)N2[C@H](C1)[C@@H](c1ccc(C#Cc3ccc(F)cc3)cc1)[C@@H]2CO,-21.2,-43.7,28.1,-2.0
Cc1noc(C)c1S(=O)(=O)Nc1ccc2c(c1)C(=O)N([C@H](C)CO)C[C@@H](C)[C@@H](CN(C)C(=O)c1ccccc1)OCCCC[C@@H](C)O2,0.1,-2.5,-0.3,-6.3
CN(C)C(=O)c1cccc(-c2ccc([C@H]3[C@H]4CN(C(=O)C5CCCCC5)CC(=O)N4[C@H]3CO)cc2)c1,3.1,14.1,0.9,9.2

Carrying on:
SMILES	Ecoli rRNA inh	Ecoli rRNA inh OD600	Ecoli rRNA inh RFP	AF4-AF9 inh
N#Cc1ccc(-c2ccc([C@@H]3[C@H](CO)N4C(=O)CN(C(=O)C5CCC5)C[C@@H]34)cc2)cc1	-2.1	10.4	-4.7	-5.5
CCCNC(=O)C[C@@H]1CC[C@@H]2[C@H](COc3ccc(NC(=O)c4cscn4)cc3C(=O)N2C)O1	1.1	1.0	-0.2	-2.6
O=C(c1cnccn1)N1CC(=O)N2[C@H](C1)[C@@H](c1ccc(C#CC3CC3)cc1)[C@@H]2CO	-0.6	6.9	-0.6	-0.3
C[C@@H]1CN([C@@H](C)CO)C(=O)Cc2cc(NC(=O)c3ccncc3)ccc2O[C@@H]1CN(C)C(=O)Nc1ccccc1	3.9	7.3	-0.5	-3.1
COc1ccc(C#Cc2ccc([C@H]3[C@H](CO)N4C(=O)CN(C(=O)c5ccccc5)C[C@@H]34)cc2)cc1	-0.6	-35.1	20.1	-1.0
O=C(c1ccc(F)cc1)N1CC(=O)N2[C@H](C1)[C@@H](c1ccc(C3=CCCC3)cc1)[C@@H]2CO	2.6	-21.8	5.2	-0.2
COc1ccc2c3c([nH]c2c1)[C@@H](CO)N(C(C)=O)CC31CCN(Cc2cc(-c3ccccc3)on2)CC1	-1.6	-0.1	4.6	36.0*
CC(C)C#Cc1ccc([C@@H]2[C@H]3CN(C(=O)c4ccccn4)CC(=O)N3[C@H]2CO)cc1	3.0	7.0	-5.2	-1.7
C[C@H](CO)N1C[C@H](C)[C@@H](CN(C)Cc2ccc3c(c2)OCO3)OCCCC[C@H](C)Oc2ccc(NS(=O)(=O)c3ccc(F)cc3)cc2C1=O	0.4	-3.5	-2.4	7.0
O=C(Nc1cccc(F)c1)N1CC(=O)N2[C@H](CO)[C@H](c3ccc(-c4cccc(F)c4)cc3)[C@H]2C1	-46.8	-74.2	-4.4	1.2
C/C=C/c1ccc([C@H]2[C@H](CO)N3C(=O)CN(C(=O)c4cnccn4)C[C@@H]23)cc1	4.2	4.7	-2.1	-1.0
CCS(=O)(=O)N1[C@H](CO)[C@H](c2ccccc2)[C@@H]1CN(C)Cc1ccccn1	3.2	-2.2	0.4	-5.1
C[C@@H]1CN([C@@H](C)CO)C(=O)c2cc(NS(=O)(=O)c3cn(C)cn3)ccc2O[C@@H](C)CCCCO[C@H]1CN(C)C(=O)c1ccccc1	-0.6	0.7	-3.5	-3.2
O=C(NC1CCCCC1)N1CC(=O)N2[C@@H](CO)[C@H](c3ccc(/C=C/c4ccccc4)cc3)[C@@H]2C1	-9.0	-48.5	28.1	2.9
O=C(Nc1ccccc1)N[C@H]1CC[C@@H](CCn2cc(-c3ccccc3F)nn2)O[C@@H]1CO	-1.9	-9.4	-1.5	0.7
COc1ccc(-c2ccc([C@@H]3[C@H](CN(C)S(C)(=O)=O)N[C@@H]3CO)cc2)cc1	-2.0	4.3	0.1	-0.4
C[C@@H]1CCCCO[C@@H](CN(C)Cc2ccc3c(c2)OCO3)[C@@H](C)CN([C@H](C)CO)C(=O)c2cc(NS(=O)(=O)c3ccc(Cl)cc3)ccc2O1	1.4	-15.9	12.7	0.8
COCC(=O)N1CC(=O)N2[C@H](CO)[C@@H](c3ccc(-c4cccnc4)cc3)[C@H]2C1	2.7	-3.0	-0.9	-1.8
Cc1ccc(S(=O)(=O)N2C[C@@H]3N[C@H](C2)C3c2ccc(-c3cccc(C#N)c3)cc2)cc1 (stereo partly specified)	0.1&2.0	25.1&0.2	0.7&4.0	-4.0&-2.2
O=C(Nc1cccc(F)c1)N1CC(=O)N2[C@H](CO)[C@@H](c3ccc(-c4ccc(F)cc4)cc3)[C@@H]2C1	-34.0	-59.9	3.1	-9.3

Records listed above printed as active in AF4-AF9 inh.
SMILES	Ecoli rRNA inh	Ecoli rRNA inh OD600	Ecoli rRNA inh RFP	AF4-AF9 inh
COc1ccc2c3c([nH]c2c1)[C@@H](CO)N(C(C)=O)CC31CCN(Cc2cc(-c3ccccc3)on2)CC1	-1.6	-0.1	4.6	36.0*

(continued)
SMILES	Ecoli rRNA inh	Ecoli rRNA inh OD600	Ecoli rRNA inh RFP	AF4-AF9 inh
C[C@H]1CCCCO[C@@H](CN(C)Cc2ccccc2)[C@@H](C)CN([C@@H](C)CO)C(=O)c2cc(NS(=O)(=O)c3ccc(Cl)cc3)ccc2O1	-19.6	-56.8	31.4	6.6
COc1ccc(NC(=O)N(C)C[C@H]2OCCCC[C@@H](C)Oc3ccc(NS(=O)(=O)c4cccs4)cc3C(=O)N([C@@H](C)CO)C[C@@H]2C)cc1	2.5	-4.3	1.0	-16.1
C[C@@H]1CCCCO[C@H](CN(C)Cc2ccc3c(c2)OCO3)[C@H](C)CN([C@H](C)CO)C(=O)c2cc(NS(C)(=O)=O)ccc2O1	0.7	5.8	-0.8	0.8
COc1cccc(NC(=O)N2CC(=O)N3[C@H](CO)[C@H](c4ccc(C#CC5CCCCC5)cc4)[C@@H]3C2)c1	2.3	-0.3	2.2	1.9
C[C@@H]1CCCCO[C@@H](CN(C)Cc2ccc(C(F)(F)F)cc2)[C@H](C)CN([C@H](C)CO)C(=O)c2cc(NS(=O)(=O)c3ccccc3)ccc2O1	-0.6	-25.1	14.8	8.0
CC(C)NC(=O)Nc1ccc2c(c1)C(=O)N([C@@H](C)CO)C[C@H](C)[C@H](CN(C)S(C)(=O)=O)O2	-3.6	-5.7	-1.8	-12.0
CN(C)C(=O)c1cccc(-c2ccc([C@@H]3[C@@H](C#N)N(C(=O)C4CCCC4)[C@@H]3CO)cc2)c1	-3.4	1.1	4.7	-3.3
C[C@@H]1CCCCO[C@H](CN(C)S(=O)(=O)c2cn(C)cn2)[C@@H](C)CN([C@H](C)CO)C(=O)c2cc(NC(=O)Nc3ccc(F)cc3)ccc2O1	-2.0	-5.2	1.5	-2.9
CO[C@H]1CN(C)C(=O)c2ccc(NC(=O)c3cnccn3)cc2OC[C@H](C)NC[C@@H]1C	4.5	-2.5	0.9	-5.3
C[C@H]1CN([C@@H](C)CO)C(=O)Cc2cc(NC(=O)c3ccncc3)ccc2O[C@H]1CN(C)Cc1ccc(C(F)(F)F)cc1	-4.4	-8.0	-0.8	-1.9
N#C[C@H]1[C@H](c2ccc(C#Cc3ccccc3F)cc2)[C@@H](CO)N1C(=O)C1CCCC1	-5.1	-41.8	31.8	-2.3
O=C(C[C@@H]1CC[C@@H]2[C@H](COC[C@H](O)CN2C(=O)c2ccccc2)O1)Nc1ccc(-c2ccccc2)cc1	-0.4	-19.6	16.3	-0.3
CN(C)c1ccc2c(c1)[C@@H]1C[C@H](CC(=O)NCc3ccc(Cl)cc3)O[C@@H](CO)[C@@H]1O2	-5.6	-7.9	-0.6	4.2
COc1ccc(NC(=O)N2CC(=O)N3[C@@H](CO)[C@H](c4ccc(Br)cc4)[C@@H]3C2)cc1	-2.6	0.6	-1.0	1.2
COc1cccc(-c2ccc([C@H]3[C@@H](CO)N4C(=O)CN(C(=O)CN5CCOCC5)C[C@@H]34)cc2)c1	1.4	1.9	-3.5	-1.6
O=C(c1ccc(F)cc1)N1CC(=O)N2[C@H](CO)[C@@H](c3ccc(C4=CCCC4)cc3)[C@@H]2C1	9.8	-28.9	12.5	3.6
CN1[C@@H]2Cn3c(ccc(/C=C/c4ccccc4)c3=O)[C@H]1[C@@H](C(=O)NC1CCCCC1)[C@@H]2CO	1.3	-8.2	2.0	-7.1
O=C(C1CC1)N1CC(=O)N2[C@@H](CO)[C@H](c3ccc(-c4cccnc4)cc3)[C@@H]2C1	3.9	22.2	-3.3	-3.9
O=C(c1ccncc1)N1CC(=O)N2[C@H](CO)[C@@H](c3ccc(-c4ccccc4F)cc3)[C@H]2C1	-2.4	-6.9	4.3	6.9
C[C@@H]1CCCCO[C@@H](CN(C)Cc2ccc3c(c2)OCO3)[C@@H](C)CN([C@@H](C)CO)C(=O)c2cc(NS(=O)(=O)c3ccc(Cl)cc3)ccc2O1	2.0	-5.9	2.3	7.5&2.7
C[C@H](CO)N1C[C@H](C)[C@@H](CN(C)C(=O)[C@H](C)c2ccccc2)OCc2ccccc2-c2c(n(C)c3ccccc23)C1=O	0.5	-3.6	2.9	9.9
O=C(N[C@@H]1CC[C@H](CCn2cc(C3CCCC3)nn2)O[C@@H]1CO)c1cccnc1	2.9	4.7	-1.3	-2.8
CC(C)CC#Cc1cnc2c(c1)C(=O)N([C@@H](C)CO)C[C@@H](C)[C@H](CN(C)C(=O)c1ccccc1F)O2	-2.1	-8.8	1.4	3.9
CN(C)C(=O)c1ccc(-c2ccc(C3[C@@H]4CN(C(=O)C5CC5)C[C@H]3N4)cc2)cc1 (stereo partly specified)	6.3&1.8	6.8&4.0	-5.4&-0.5	-13.4&-11.0
Cc1ccccc1S(=O)(=O)N1CC(=O)N2[C@@H](CO)[C@H](c3ccc(C#CCC4CCCC4)cc3)[C@@H]2C1	2.2	1.9	-3.9	-0.9

Assay outcomes from PubChem.

Only part of the results is shown; the hit share may differ from the screen's.
